Assay outcomes deposited in PubChem BioAssay by several laboratories.
ugtP null kill = growth inhibition of ugtP-null S. aureus, primary screen, RN4220 ugtP deletion, OD600. 16 h; some inactives read as strong as hits. growth inhibition, % (concentration not given with the values). actives 0.54% (n = 330,000);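 active = z-score under -3 and OD600 up to 0.15 on both plates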;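 also: plate controls were untreated wells for no effect and antibiotic for full effect; wells of about 80 µL received 100 nL stock; the first replicate is given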
BJeLR lethal = MLPCN primary cell-based screen for lethality selective to Ras in HRASV12 cells; BJeLR (HRASV12) viability, CellTiter-Glo ATP luminescence, 48 h; reference of the scale not given here; actives 0.17% (n = 300,000); inhibition, % (concentration not given with the values); AID 1554, 2009;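 active = replicate mean above 50%; inconclusive = above 50% but judged a plate artefact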;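 also: 50 nL library stock added to about 25 µL; numbers are from one replicate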
Sa RN4220 lethal = growth inhibition of S. aureus RN4220, primary screen, OD600 | AID 1259311, 2017 | inhibition, % (test concentration not listed) | 16 h | actives 0.33% (n = 330,000);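 active = z-score of -3 or lower and OD600 up to 0.18 on both plates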;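 also: plate controls were untreated cells for no effect and reference antibiotic for full effect; stock transfer was 100 nL into about 80 µL; one replicate is shown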
Mtb hypoxia rep = PubChem AID 1159583 | M. tuberculosis hypoxia-regulated fluorescent reporter, fluorescence | fluorescence inhibition, % (test concentration not listed) | actives 0.1% (n = 300,000);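 active = 35 to 45% if threefold the growth effect, above 45% if 1.5-fold the growth effect; inactive = the rest, general growth blockers included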;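 also: wells of about 50 µL received 100 nL stock; 0% = vehicle wells and 100% = reference inhibitor wells; whole bacteria with a GFP reporter of the hypoxia response; strong numbers were not always called active; many hits fall short of the cut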
PrP UTR inh = inhibition of PrP 5' UTR reporter expression; inhibition, % (test concentration not listed); cell-based PrP 5' UTR mRNA reporter, plate reader; actives 0.35% (n = 340,000); AID 488862, 2010;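 active = every replicate at 50% or more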;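 also: 0 = median of the neutral control wells; tested in H4 reporter cells; numbers are from one replicate; inactives centre near -14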
Bead autofluor = flagged as autofluorescent in microsphere protease counterscreen. compound autofluorescence counterscreen, microsphere flow cytometry; active compounds read high. fluorescence intensity (no concentration beside the values). actives 3.1% (n = 360,000);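 active = at least 3 SD above the mean of all compounds, about 16000 in these data; inconclusive = too few beads counted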;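 also: 100 nL of 1 mM stock went into each well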
Mtb hypoxia rep growth = further read-out of Mtb hypoxia rep, marked with its call; growth inhibition, %; measured here: M. tuberculosis growth (absorbance);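 0% = vehicle and 100% = reference antibiotic; read after six days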
* marks the source's active call; other numbers are inactive results; ? = inconclusive; / = no result given; & = joins results of further samples. Outcome played no part in choosing rows; any-hit rate near 4%.

The first 3 entries, ahead of the listing:
SMILES	ugtP null kill	BJeLR lethal	Sa RN4220 lethal	Mtb hypoxia rep	Mtb hypoxia rep growth	PrP UTR inh	Bead autofluor
CSc1ncccc1C(=O)N1CCCC(N2CCN(c3ccccc3F)CC2)C1 (stereo not drawn)	2	8	0.0	10	4	-23	4405
CCOc1cc(C(=O)NCC(=O)NN=Cc2sccc2C)cc(OCC)c1OCC	1	/	3.4	14	5	/	/
O=C(Nc1ccc(N2CCOCC2)cc1)c1ccc(Br)o1	8	-3	2.0	13	12	-38	3573

This part in full, from the first entry:
SMILES	ugtP null kill	BJeLR lethal	Sa RN4220 lethal	Mtb hypoxia rep	Mtb hypoxia rep growth	PrP UTR inh	Bead autofluor
CSc1ncccc1C(=O)N1CCCC(N2CCN(c3ccccc3F)CC2)C1 (stereo not drawn)	2	8	0.0	10	4	-23	4405
CCOc1cc(C(=O)NCC(=O)NN=Cc2sccc2C)cc(OCC)c1OCC	1	/	3.4	14	5	/	/
O=C(Nc1ccc(N2CCOCC2)cc1)c1ccc(Br)o1	8	-3	2.0	13	12	-38	3573
Cc1ccc(-c2cnc3n2CCCCC3)cc1	8	-2	2.3	6	-3	-30	4529
CCN(CC)c1ccc(NC(=O)c2c(C)noc2C)cc1	-1	7	0.9	13	1	-3	5592
C=CCN1C(=NC(=O)COc2ccccc2)SC2CS(=O)(=O)CC21 (stereo not drawn)	4	13	7.5	16	3	-11	5722
CCOc1ccccc1C1CC(c2ccc(F)cc2)Nc2nc(N)nn21 (stereo not drawn)	0	-14	0.4	/	/	-24	6261
Cc1ccc2cc3cc(C(=O)NCc4ccco4)oc3nc2c1	7	1	5.1	/	/	-29	3342
Cc1ccc(C(=O)NCCn2cc(SCC(=O)N3CCOCC3)c3ccccc32)cc1	-4	-8	-8.5	1	10	-14	6258
CCOc1ccccc1OCCOc1ccccc1OC(C)C	6	2	4.6	/	/	-23	2717
CCOc1ccc(C(=O)NC(=S)N2CCN(c3ccc(C(F)(F)F)cc3[N+](=O)[O-])CC2)cc1	4	0	1.3	6	4	-66	2537
CN(C)S(=O)(=O)c1cc(NC(=O)COC(=O)C2COc3ccccc3O2)ccc1Cl (stereo not drawn)	7	8	8.7	17	2	-12	4774
CC(=O)/C(=C/N(C)C)C(=O)Nc1ccc(Cl)cc1Cl	/	-19	/	/	/	-18	3453
COc1ccccc1CCC(=O)OCC(=O)Nc1ccc(C(N)=O)cc1	10	1	3.9	6	5	-17	6079
CCn1c2ccccc2n2c(=O)c(=O)n(CC(=O)N3CCN(c4ccccc4OC)CC3)nc12	3	8	5.2	20	8	/	/
CSc1ncccc1C(=O)OCC(=O)Nc1ccc(N2CCOCC2)cc1	8	/	4.1	14	8	-11	3558
COc1ccc(N2CC(O)=C(c3nc4ccccc4s3)C2=N)c(OC)c1	14	-3	-6.1	6	15	-26	6042
CCCCn1c(N)c(N(CCOC)C(=O)c2ccc(Br)s2)c(=O)[nH]c1=O	-2	-11	-0.7	-11	7	-16	?
Cc1cccc(C)c1-n1c(C)cc(C=NNC(=O)CC(=O)NC2CCCCC2)c1C	-4	/	6.8	7	12	/	/
CCOC(=O)c1ccccc1NC(=O)c1cncc(Br)c1	2	7	8.7	5	13	0	2679
Cc1ccc(Cn2nc(C)c3cc(C(=O)OCC(N)=O)sc32)cc1	0	-4	4.4	/	/	-8	2933
CC1=C(C(=O)OC(C)C)C(c2cccs2)N2C(=O)C(C)SC2=N1 (stereo not drawn)	-11	0	-6.2	6	8	-12	3001
O=C(CN1CCN(Cc2ccccc2)CC1)N1CCCc2c1c(=O)oc1ccc(O)cc21	3	-5	0.3	4	8	-40&-8	5117
O=S(=O)(c1ccccc1F)N1CCN(c2nc3ccccc3s2)CC1	-6	3	1.3	-2	10	-45	4655
Cc1cc(C)c(NC(=O)Cc2ccc(-n3cccc3)cc2)c(C)c1	3	14	7.1	10	1	-8	2644
O=C(NCC1(c2ccccc2)CCCC1)c1ccc(Br)o1	7	-3	4.3	7	-14	-25	2364
N#Cc1c(N)n[nH]c1CCCN	14	7	6.7	1	1	-22	10982
CCOc1ccc(NC(=S)NCc2nc3ccccc3[nH]2)cc1	3	-5	-0.9	-5	8	2	4562
CCc1nc2sc3ccccc3c(=O)c2c(=O)n1CCOC	-4	6	-0.4	-4	14	-41	19591*
O=C(NCCN1CCOCC1)c1cc(-c2ccc(Br)cc2)on1	-2	-1	0.9	0	10	-2	10811
O=C(Cc1ccc(NC2=NC3CS(=O)(=O)CC3S2)cc1)NCc1ccccc1Cl (stereo not drawn)	-6	-8	-9.4	4	7	-11	5527
O=C(NCc1cccs1)C1CCCN1C(=O)Nc1cccc(F)c1 (stereo not drawn)	-62	4	-1.5	14	6	-19	4384
Cc1ccc(C(=O)N2CCCC(CCC(=O)N3CCN(c4ccccn4)CC3)C2)cc1 (stereo not drawn)	-6	10	-1.4	-5	3	-14	5580
CCC1CCCCN1CCCNC(=O)CN1C(=O)c2cccnc2Oc2ccc(C)cc21 (stereo not drawn)	-3	-1	-2.5	-4	-1	-15	5540
CCOC(=O)c1ccccc1NC(=O)c1cn(-c2ccc(C)c(C)c2)c(=O)c2ccccc12	-22	-7	-6.5	-12	1	-14	2430
O=P(Nc1ccccc1)(Oc1ccccc1)Oc1ccccc1	-10	-5	6.2	-8	6	-6	/
COc1cccc(-c2nc(CS(=O)(=O)CC(=O)NC3CCC(C)CC3)c(C)o2)c1 (stereo not drawn)	-4	5	4.3	10	11	-19	5401
CC(=O)Nc1cccc(NC(=O)CSc2ccc3nnc(CCNC(=O)c4ccccc4)n3n2)c1	4	9	0.8	-6	-6	6	/
COc1c2c(c3c(c1OC)c(=O)c1ccccc1n3C)OCO2	-5	/	-4.3	10	4	-17	3570
Cc1cc(NS(=O)(=O)c2ccc(NC(=O)C(C)Oc3ccc4c(C)cc(=O)oc4c3)cc2)no1 (stereo not drawn)	3	-2	0.0	/	/	-4	5833

4 compounds out of the list, arranged by count of non-hydrogen atoms, largest number first:
SMILES	ugtP null kill	BJeLR lethal	Sa RN4220 lethal	Mtb hypoxia rep	Mtb hypoxia rep growth	PrP UTR inh	Bead autofluor
Cc1cc(NS(=O)(=O)c2ccc(NC(=O)C(C)Oc3ccc4c(C)cc(=O)oc4c3)cc2)no1 (stereo not drawn)	3	-2	0.0	/	/	-4	5833
CCOC(=O)c1ccccc1NC(=O)c1cn(-c2ccc(C)c(C)c2)c(=O)c2ccccc12	-22	-7	-6.5	-12	1	-14	2430
O=C(Cc1ccc(NC2=NC3CS(=O)(=O)CC3S2)cc1)NCc1ccccc1Cl (stereo not drawn)	-6	-8	-9.4	4	7	-11	5527
O=P(Nc1ccccc1)(Oc1ccccc1)Oc1ccccc1	-10	-5	6.2	-8	6	-6	/

Following part
SMILES	ugtP null kill	BJeLR lethal	Sa RN4220 lethal	Mtb hypoxia rep	Mtb hypoxia rep growth	PrP UTR inh	Bead autofluor
COC(=O)C1=C(C)NC2=C(C(=O)CCC2)C1c1ccsc1 (stereo not drawn)	-6	-3	-13	0	2	/	/
CC(C)(C)C(=O)NNC(=O)c1ccc(Oc2cc(Cl)cc(Cl)c2)o1	3	-6	-0.5	3	-1	-8	3230
CN(C)S(=O)(=O)N1CCN(S(=O)(=O)N2CCOCC2)CC1	-1	4	-1.1	6	2	-26	3467
O=C(c1ccco1)N(c1ccccn1)c1ccccn1	-3	-3	-0.6	1	10	-9	22821*
Cc1ccc(C(=O)NCC(=O)N2CCN(c3ccccc3)CC2)cc1	1	3	0.5	9	4	-12	3760
COCCCNC(=O)C1CCC(=O)N(c2ccc3c(c2)OCO3)C1c1ccc(OC)cc1 (stereo not drawn)	3	-7	4.0	-10	5	-12	3809
Cc1ccc2cc(C=NNC(=O)[C@@H]3CCCN3)c(Cl)nc2c1	9	/	5.0	19	8	/	/
O=C(COc1ccc2c(c1)OCO2)Nc1nccs1	2	13	2.4	15	-3	-9	5219
O=C(c1cccnc1)n1nc(-c2ccco2)nc1NCc1cccs1	1	3	2.4	0	11	-33	5206
CC(C)c1ccc(NC(=O)[C@H]2CSCN2C(=O)[C@@H]2CCC(=O)N2)cc1	3	-10	1.3	-4	-2	-4	4123

Just BJeLR lethal, for two of the compounds above:
structure,BJeLR lethal
CC(C)(C)C(=O)NNC(=O)c1ccc(Oc2cc(Cl)cc(Cl)c2)o1,-6
CN(C)S(=O)(=O)N1CCN(S(=O)(=O)N2CCOCC2)CC1,4

Looked up one by one from above (2):
SMILES	ugtP null kill	BJeLR lethal	Sa RN4220 lethal	Mtb hypoxia rep	Mtb hypoxia rep growth	PrP UTR inh	Bead autofluor
Cc1cc(NS(=O)(=O)c2ccc(NC(=O)C(C)Oc3ccc4c(C)cc(=O)oc4c3)cc2)no1 (stereo not drawn)	3	-2	0.0	/	/	-4	5833
Cc1ccc(-c2cnc3n2CCCCC3)cc1	8	-2	2.3	6	-3	-30	4529

(continued)
SMILES	ugtP null kill	BJeLR lethal	Sa RN4220 lethal	Mtb hypoxia rep	Mtb hypoxia rep growth	PrP UTR inh	Bead autofluor
O=C(CSc1nc(C(F)(F)F)cc(=O)[nH]1)N1CCCCCC1	-4	0	0.6	1	8	-2	5972
COc1cc(NC(=O)c2ccc(CNc3c(N4CCOCC4)c(=O)c3=O)cc2)cc(OC)c1	9	9	-1.0	5	4	-12	5810
CCNC(C(=O)c1c[nH]c2c(CC)cccc12)c1ccccc1 (stereo not drawn)	11	-3	-1.0	14	11	-24	3649
Cc1cc(F)ccc1NC(=O)c1cc(S(=O)(=O)N2CCCC2)cn1C	-6	-1	-12	1	4	-24	5426
O=C(NCCCNC(=O)c1ccccn1)c1ccccn1	3	5	2.6	/	/	-11	4105
Cc1nc(NC(C)C)c2cnn(CCc3ccccc3)c2n1	2	12	7.2	11	9	-32	3170
CCSc1nnc(Cc2cc(=O)[nH]c(=O)[nH]2)n1-c1cccc(C)c1	15	0	6.1	4	7	-6	5897
O=C(NC1CCN(Cc2ccccc2)CC1)C1CCN(S(=O)(=O)c2cccc3cccnc23)CC1	9	5	3.2	/	/	-2	5455
COC(=O)Cc1ccc(O)c(N)c1	-1	-3	4.0	4	2	-15	4817
CCCCCC=NNC(=O)c1[nH]c2ccc([N+](=O)[O-])cc2c1C	-13	/	-12	7	8	/	/
CC(=O)C1=C(C)NC(=O)NC1c1ccc(OC2CCCC2)cc1 (stereo not drawn)	-5	-7	3.8	4	5	-27	11595
Cc1ccc(NC(=O)CSC2=Nc3ccccc3C3CC=NN23)c(C)c1 (stereo not drawn)	-9	-1	1.0	-4	-9	-27	?
Cn1ncc(N=Cc2ccccc2)c1C(=O)Nc1cccc(Cl)c1	-9	-1	-0.1	/	/	-41	3858
CC(C)c1ccc(CNc2ccc(N3CCOCC3)cc2)cc1	6	3	-2.0	-4	6	-55	3686
CCOC(=O)Cc1csc(NC(=O)c2ccc(C)o2)n1	-7	-2	2.2	3	4	0	8273
Cn1cccc1C(=O)C(=O)Nc1cccc(Cl)c1Cl	-8	3	-1.7	/	/	-55	2015
CC1CCCN(c2nc(NCc3ccco3)nc(N)c2[N+](=O)[O-])C1 (stereo not drawn)	16	-1	30	6	1	-10	2690
Cc1ccc(-c2csc(N(CCc3ccccc3)C(=O)COc3ccccc3)n2)cc1	-5	-9	-2.9	5	1	-15	8898
Cc1cc(C)cc(-n2ncc3c2CCCC3NC(=O)C2CCC2)c1 (stereo not drawn)	-9	-4	5.2	19	7	-1	5312
COc1ccc(-n2c3c(c(=O)[nH]c2=O)C(NC(C)=O)(C(F)(F)F)C(=O)N3)cc1 (stereo not drawn)	5	2	9.5	5	7	-16	3850
CCCC(=O)Nc1cc(-c2nn(C)c(=O)c3ccccc23)ccc1N1CCOCC1	7	1	0.0	/	/	-5	3819
O=C(O)c1ccc(Nc2ccc(F)c(F)c2)c([N+](=O)[O-])c1	4	0	5.2	16	4	-39	3837
COc1ccc(-c2nc(C(N)=O)c3[nH]c(=O)n(-c4cccc(Cl)c4)c3n2)cc1OC	-17	-2	5.4	3	8	-57	3298
CC(C)(C)C1CCC(=NNC(=O)CN(c2ccccc2)S(C)(=O)=O)CC1 (stereo not drawn)	9	0	4.5	15	6	-9	2379
